Bioassay records as filed in PubChem BioAssay.
Six1-Eya2 inh: qHTS Assay for Inhibitors of the Six1/Eya2 Interaction; Homeobox protein SIX1 (Homo sapiens) + Protein phosphatase EYA2 (Homo sapiens), …; AlphaScreen GST-Six1/His-Eya2 binding, biochemical; active compounds read low; control for the full effect not named in the record; activity change, % (test concentration not listed); 360,000 tested, 0.56% active; AID 651725, 2012; in the data active = activity change below about -65%; inconclusive = about -30% to -65%; inactive = above about -30%; further: on the % scale 0 is the no-effect control and ±100 the full control effect
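AlphaScreen luminescence read after one hour at 37 °C in darkness. Pin-transferred compounds met GST-Six1 and His-Eya2 protein (5X stock 250 nM/500 nM) plus glutathione donor and Ni-chelate acceptor beads (5X, 50 ug/mL).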
TRPML1 inh: qHTS for Inhibitors of the Human Mucolipin Transient Receptor Potential 1 (TRPML1). TRPML1-inducible cells, Ca2+ dye fluorescence, FDSS; active compounds read low; inhibition of EC80 agonist-evoked calcium signal. activity change, negative = inhibition, % (test concentration not listed). 390,000 tested, 0.02% active; in the data active means activity change below about -50%; inconclusive means about -30% to -50%; inactive means above about -30%;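 further: stimulus is agonist 54-4 at its EC80 concentration; on the % scale 0 is the no-effect control and ±100 the full control effect; compound concentration not given in the record; the text of the record puts the active cut at -80%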
Target sequence (Q9GZU1 whole entry, looked up): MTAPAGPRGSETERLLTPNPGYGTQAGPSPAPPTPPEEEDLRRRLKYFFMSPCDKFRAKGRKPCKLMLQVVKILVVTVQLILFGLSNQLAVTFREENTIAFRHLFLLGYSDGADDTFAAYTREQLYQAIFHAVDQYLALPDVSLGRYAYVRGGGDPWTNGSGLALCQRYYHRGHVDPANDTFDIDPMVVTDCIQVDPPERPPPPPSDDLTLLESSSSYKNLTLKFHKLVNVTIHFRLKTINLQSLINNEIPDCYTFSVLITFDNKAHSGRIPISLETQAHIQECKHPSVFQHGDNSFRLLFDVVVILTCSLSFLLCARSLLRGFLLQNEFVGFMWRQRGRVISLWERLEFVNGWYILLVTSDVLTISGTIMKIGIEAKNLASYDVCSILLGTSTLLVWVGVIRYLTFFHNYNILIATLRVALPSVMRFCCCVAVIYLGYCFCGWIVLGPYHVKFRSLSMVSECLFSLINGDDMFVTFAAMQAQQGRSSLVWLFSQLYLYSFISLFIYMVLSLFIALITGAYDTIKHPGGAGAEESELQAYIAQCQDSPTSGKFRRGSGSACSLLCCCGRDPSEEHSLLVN
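Tet-induced TRPML1-DL cells loaded with Ca8 no-wash calcium dye were read kinetically on FDSS. Compound addition was followed by EC80 agonist 54-4 (4 uM final); inhibition was read over 110 s.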
TRPV1 PAM: HTS Assay for Compounds that Act as Potentiators of the Vanilloid Receptor 1 | TRPV1-expressing cells, Fluo-8 calcium influx, capsaicin EC20 potentiation; host cell line not named in the record; control for the full effect not named in the record | 320,000 tested, 0.02% active | Transient receptor potential cation channel subfamily V member 1 (Homo sapiens), Q8NER1 | potentiation, % at 8.33 µM; active means potentiation above 80%; inconclusive means 30% to 80%; inactive means below 30%; further: 0% is about no effect
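Cells expressing TRPV1 were dye-loaded with Fluo-8 and read kinetically: 10 s baseline, 3 min after compound (agonist portion), then 2 min after EC20 capsaicin (allosteric enhancer portion). Calcium-bound dye fluorescence at 480/520 nm.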
TRPML1 ag: qHTS for Agonists of the Human Mucolipin Transient Receptor Potential 1 (TRPML1); Mucolipin-1 (Homo sapiens), Q9GZU1; TRPML1-expressing cells, Ca2+ dye fluorescence, FDSS; host cell line not named in the record; reference of the full effect not given here; activation, % (concentration not given with the values); 410,000 tested, 0.12% active; AID 624414, 2012; in the data active = activation above about 50%; inconclusive = about 30% to 50%; inactive = below about 30%; further: 0% is about no effect; the text of the record puts the active cut at 80%
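Tet-induced TRPML1-DL cells, 1,500 per well, cultured overnight, were loaded with a no-wash Ca2+ dye for 45–90 min. Calcium fluorescence was recorded on the FDSS for 110 s after compound addition, before the EC80 agonist (4 uM 54-4) was added.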
CtBP-E1A blk: qHTS Assay for Inhibitors of the CtBP/E1A Interaction; AID 651724, 2012; 340,000 tested, 0.49% active; AlphaScreen GST-E1A/His-CtBP binding, 1536-well; active compounds read low; control for the full effect not named in the record; activity change, % (test concentration not listed); CtBP / adenovirus E1A interaction (AlphaScreen); in the data active means activity change below about -65%; inconclusive means about -30% to -65%; inactive means above about -30%; further: on the % scale 0 is the no-effect control and ±100 the full control effect
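Steps: dispense buffer (Tris pH 8.0, NaCl 300 mM, TCEP 1 mM, BSA, Tween 20); add 5X protein mix (GST-E1A, His-CtBP, 125 nM each); pin 23 nL compound; 2 h at 37 °C, dark; add 5X beads (50 ug/mL); 1 h; read.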
D2 PAM: Beta-Arrestin HTS for Positive Allosteric Modulators of the Human D2 Dopamine Receptor: Potentiators | D(2) dopamine receptor (Homo sapiens), P14416 | DiscoveRx D2 beta-arrestin cells, luminescence, 90 min; 100% = 57 uM dopamine signal | potentiation, % (concentration not given with the values) | 360,000 tested, 0.23% active | AID 624464, 2012; active = potentiation of 50% or more; inconclusive = 30% to 50%; inactive = 30% or less;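 further: compound concentration not given in the record; tested on top of an EC20 dose of dopamine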
Target sequence (P14416 whole entry, looked up): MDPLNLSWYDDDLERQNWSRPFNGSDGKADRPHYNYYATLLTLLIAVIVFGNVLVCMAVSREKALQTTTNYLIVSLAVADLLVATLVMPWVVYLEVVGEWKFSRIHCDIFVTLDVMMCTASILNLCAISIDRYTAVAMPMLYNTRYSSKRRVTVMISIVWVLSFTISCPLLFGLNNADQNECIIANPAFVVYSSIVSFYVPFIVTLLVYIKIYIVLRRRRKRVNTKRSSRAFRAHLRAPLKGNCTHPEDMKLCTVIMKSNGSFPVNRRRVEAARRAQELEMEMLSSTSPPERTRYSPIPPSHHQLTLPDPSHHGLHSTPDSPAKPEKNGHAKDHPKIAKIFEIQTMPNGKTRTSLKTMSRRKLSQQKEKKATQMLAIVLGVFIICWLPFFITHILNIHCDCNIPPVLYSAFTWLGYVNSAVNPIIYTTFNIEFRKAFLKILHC
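D2 cells co-treated with compound plus 50 nM dopamine (EC20) for 90 min at 37 deg C to detect potentiation. Beta-arrestin recruitment was read as enzyme-fragment luminescence after 1 h at ambient temperature. Full response was set by 57 uM dopamine.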
Active calls of the source: *; ? = inconclusive; · = not tested or not shown.

Below each compound – Six1-Eya2 inh	TRPML1 inh	TRPV1 PAM	TRPML1 ag	CtBP-E1A blk	D2 PAM
Cc1ccc(N2CCCCn3c2nc2c3c(=O)[nH]c(=O)n2C)cc1
→ -11.2	18.4	5.3	-0.8	-2.6	3.7
CC(=O)C12C3C4C(C5C1C3C5(Br)C41OCCO1)C21OCCO1 (stereo not drawn)
→ 1.5	3.0	-9.8	-0.1	12.6	2.0
CCn1c(SCC(=O)Nc2ccc(NC(C)=O)cc2)nc2c([nH]c3ccccc32)c1=O
→ 5.0	15.8	4.5	0.5	0.0	-0.3
O=C(Nc1nc2c(s1)CN(Cc1ccccc1)CC2)C1CCCC1
→ -10.7	2.2	17.8	-0.4	-1.5	-8.7
COc1ccc(S(=O)(=O)N2c3ccccc3OCC2CC(=O)O)cc1 (stereo not drawn)
→ -6.6	21.0	-37.5	0.9	·	-9.9
O=C(Nc1ccc2c(c1)OCCO2)C(C1CC1)N1CCN(C/C=C/c2ccccc2)CC1 (stereo not drawn)
→ -11.6	·	·	-0.8	-6.3	-14.1
NS(=O)(=O)c1ccc(CCNC(=O)c2cc(-c3ccccc3)nc3ccccc23)cc1
→ 2.9	6.0	-4.2	0.9	1.6	-31.6
COc1cccc(C2SCC(=O)N2c2ccc(C)cc2)c1OC (stereo not drawn)
→ 3.5	-2.3	3.3	-1.1	1.9	-11.6
CCOc1ccc(N2Nc3n[nH]c(N)c3N2)cc1
→ -15.2	-4.5	-4.9	1.8	-11.3	-18.7
Cc1cc(Br)cn2c(Cc3cccc(F)c3)c(-c3cccc(Br)c3)nc12
→ -5.7	11.2	·	-0.4	4.4	-5.6
CCCCS(=O)(=O)Nc1ccc(C(=O)NCC2CCCO2)cc1 (stereo not drawn)
→ 3.0	-1.9	2.2	-0.4	-12.0	-26.5
CC(=O)Nc1ccc(S(=O)(=O)NC2(C(F)(F)F)C(=O)NC(C)=C2C#N)cc1 (stereo not drawn)
→ -2.1	-15.3	6.3	0.9	-15.3	-2.6
COC(=O)CNC(=O)CNC(=O)c1nn(-c2ccc(OC)c(Cl)c2)c(=O)c2ccccc12
→ 6.8	-8.1	7.4	1.0	1.6	-16.7
CCCN1CCN(CCCNC(=O)Cn2nc(-c3ccc(C)cc3)ccc2=O)CC1
→ -5.0	-3.0	9.7	0.3	-12.7	-17.6
Cc1ccc(O)c(NC(=S)NC(=O)Cc2ccc(Cl)cc2)c1
→ -22.4	0.7	9.7	74.6*	-22.4	-6.0
CCCCOc1ccc(C(=O)N(Cc2ccco2)C2CCS(=O)(=O)C2)cc1 (stereo not drawn)
→ -3.4	-3.2	-0.8	0.1	-3.7	-2.1
CCn1c2ccccc2c2cc(NC(=O)c3ccc(=O)oc3)ccc21
→ 0.1	-4.4	·	5.9	4.7	-1.0
COCCNC(=S)N(CCc1c(C)[nH]c2ccc(OC)cc12)Cc1cccnc1
→ ?	·	-16.7	·	-7.7	-2.4
Cc1cccnc1Nc1nc(-c2ccc(O)cc2)cs1
→ -1.6	3.5	3.9	1.6	49.5	-4.5
OC(COc1ccc(Cl)cc1)CN1CCC(Cc2ccccc2)CC1 (stereo not drawn)
→ 12.5	-20.2	4.9	1.3	1.9	-29.7

Of the compounds above, 2 have bromine.
Below each compound – Six1-Eya2 inh	TRPML1 inh	TRPV1 PAM	TRPML1 ag	CtBP-E1A blk	D2 PAM
CC(=O)C12C3C4C(C5C1C3C5(Br)C41OCCO1)C21OCCO1 (stereo not drawn)
→ 1.5	3.0	-9.8	-0.1	12.6	2.0
Cc1cc(Br)cn2c(Cc3cccc(F)c3)c(-c3cccc(Br)c3)nc12
→ -5.7	11.2	·	-0.4	4.4	-5.6

Following part.
Below each compound – Six1-Eya2 inh	TRPML1 inh	TRPV1 PAM	TRPML1 ag	CtBP-E1A blk	D2 PAM
CCOC(=O)N1CCC(Nc2c([N+](=O)[O-])cc(C(=O)O)cc2[N+](=O)[O-])CC1
→ 0.4	·	13.0	·	6.4	10.2
COc1ccc(CNC(=O)[C@@H](NC(=O)C2CCN(C(=O)[C@@H](N)CCSC)CC2)C(C)C)cc1
→ 4.0	·	8.0	·	2.3	-23.0
Cc1ccccc1CN1CCCC(C(=O)N2CCCCC2)C1 (stereo not drawn)
→ 2.0	3.1	1.6	-0.3	·	-6.2
O=C(COC(=O)COc1ccc(Cl)cc1)Nc1ncc(Br)s1
→ 0.3	4.4	-12.2	0.8	10.8	-0.2
CCOc1ccccc1NC(=O)CN1CCC(NC(=O)c2ccccc2)CC1
→ -3.7	8.2	3.4	-1.5	-14.7	-21.1
CC1CCC(NC(=O)c2cccc(S(=O)(=O)NCc3ccccc3)c2)CC1 (stereo not drawn)
→ 5.0	0.2	6.4	1.1	1.0	-5.5
C=CCOc1cccc(C2NC(=O)c3ccccc3O2)c1 (stereo not drawn)
→ -4.4	-7.9	15.9	-0.5	0.0	-5.9
[O-][N+](=C(c1ccccc1)c1ccccc1)c1ccccc1
→ 4.5	-4.1	·	-0.4	2.6	-1.6
Cc1ccn(CCC(=O)NC2CC(C)(C)Cc3c2cnn3-c2ccccc2C)n1 (stereo not drawn)
→ -2.6	2.0	-3.2	-0.4	4.1	-5.8
COc1ccc(N2CCN(C(=O)CC(NC(N)=O)c3cccc(Oc4ccccc4)c3)CC2)cc1 (stereo not drawn)
→ -15.7	8.2	4.5	1.0	-24.2	-2.1
CC(C)(C)Nc1scc(-c2ccccc2)[n+]1-c1ccccc1
→ -29.1	10.3	-3.8	0.8	-17.4	-3.5
CC(=O)Nc1ccc(NC(=O)Cc2ccc(S(=O)(=O)N3CCCCC3)cc2)cc1
→ 22.0	-7.3	5.6	0.4	0.0	-26.7
N#Cc1cnc(Nc2ccc(F)cc2)nc1N
→ 11.0	-4.7	12.1	0.0	3.3	-6.0
O=C(Cc1coc(-c2ccc(F)cc2)n1)NCc1ccccc1
→ -6.5	-1.4	-15.8	0.7	-1.5	-12.7
COc1ccc(N2CCN(C(=O)c3cc4c(C)nc5ccccc5c4o3)CC2)cc1
→ -26.3	8.0	-10.7	1.0	?	0.3
CC1=NN(c2ccc(Cl)cc2)C(=O)/C1=C\c1cccn1-c1ccc(S(N)(=O)=O)cc1
→ -8.4	-12.6	-5.9	-0.3	0.8	-10.6
O=C(Nc1cccn(Cc2ccccc2)c1=O)NC1CCCCC1
→ -8.3	1.7	-6.4	-0.4	-5.9	-6.6
C=CCNC(=O)CN(c1cc(Cl)ccc1OC)S(=O)(=O)c1ccc(C)c([N+](=O)[O-])c1
→ 3.6	-0.5	-3.6	-0.7	0.5	-10.4
COc1ccc(NS(=O)(=O)c2ccc(N3CCOCC3)c(NC(=O)C(C)C)c2)cc1
→ 10.8	9.9	5.8	-0.1	7.5	5.3
CC(=O)NC(c1ccccc1)c1nc(-c2ccccc2C)cs1 (stereo not drawn)
→ 0.1	·	·	-0.4	4.1	1.3

Remaining list, next part:
canonical_smiles	Six1-Eya2 inh	TRPML1 inh	TRPV1 PAM	TRPML1 ag	CtBP-E1A blk	D2 PAM
COc1ccc(N2CC(C(=O)Nc3nnc(Cc4ccccc4)s3)CC2=O)cc1 (stereo not drawn)	3.8	34.2	12.1	0.8	-0.6	-0.1
Cc1ccc2cc(CCl)c(Cl)nc2c1	-2.0	-1.9	-0.7	-0.2	-0.3	-0.9
Cc1ccc(NC(=O)c2ccc(S(=O)(=O)N3CCCCC3)cc2)nc1	-1.6	37.7	-18.2	-0.3	2.2	-1.8
Nc1ccn(Cc2ccccc2)n1	0.9	5.6	-2.8	-0.1	-8.1	-5.8
CCN(CC)S(=O)(=O)c1ccc(O)c(C(=O)OCC(=O)Nc2cc(C)c(C)cc2[N+](=O)[O-])c1	-6.7	6.6	6.0	1.6	-8.2	-2.4
C=C1[C@@H](OC(C)=O)CC[C@]2(C)[C@@H]1C[C@@H]1C[C@H](OC(C)=O)C(C)=C([C@@H](OC(C)=O)[C@@H]2OC(C)=O)C1(C)C	-8.2	0.5	-15.3	2.5	-8.4	-11.8
COc1cc(/C=C2\C(=O)N(c3cccc(C(=O)O)c3)N=C2C)ccc1OCc1ccccc1	-5.4	?	·	-0.9	-14.1	-16.0
CC(C)(C)OC(=O)N/N=C/c1cccn1-c1ccc([N+](=O)[O-])cc1	-23.5	-15.9	·	1.7	?	0.9
CC(C)(C)c1ccc(C(=O)OCc2c(-c3ccccc3)ncc3ccccc23)cc1	2.5	3.8	·	4.4	-11.7	·
S=C(c1cn(Cc2ccc(Br)cc2)c2ccccc12)N1CCOCC1	-23.6	31.9	24.1	3.0	-19.8	-13.2
CCc1cccc(C)c1NC(=O)CSc1nnc(-c2cc3cc(Br)ccc3o2)n1CC	-1.8	6.2	-5.7	3.1	-10.8	-8.4
CCOC(=O)C1CCCN(c2c(Nc3ccc(C)c(C)c3)c(=O)c2=O)C1 (stereo not drawn)	-3.8	-7.2	-4.7	-1.1	9.1	-10.2
COc1ccc(C(C(=O)NC2CCCCC2)N(C(=O)Cc2c[nH]c3ccccc23)c2ccc(NC(C)=O)cc2)cc1OC (stereo not drawn)	-2.2	-5.2	-10.0	0.4	-0.3	-0.4
Cc1ccc(NC(=O)C(C)N=C2NS(=O)(=O)c3ccccc32)cc1 (stereo not drawn)	6.8	-2.6	15.1	-0.5	1.2	-16.8
Cc1ccc(-n2c3nc(=O)[nH]c(=O)c-3cc3cc([N+](=O)[O-])ccc32)cc1C	-6.5	-17.4	-3.4	7.6	1.0	-0.6

Two successive records already listed:
canonical_smiles	Six1-Eya2 inh	TRPML1 inh	TRPV1 PAM	TRPML1 ag	CtBP-E1A blk	D2 PAM
Cc1ccc(NC(=O)C(C)N=C2NS(=O)(=O)c3ccccc32)cc1 (stereo not drawn)	6.8	-2.6	15.1	-0.5	1.2	-16.8
Cc1ccc(-n2c3nc(=O)[nH]c(=O)c-3cc3cc([N+](=O)[O-])ccc32)cc1C	-6.5	-17.4	-3.4	7.6	1.0	-0.6
